Screening results (PubChem BioAssay)
2A firefly = FMDV 2A StopGo reporter, firefly signal; HEK cells with a luciferase reporter of 2A StopGo recoding; Potency, µM (doses to about 57.5 µM), inactives show at the highest dose signal change, negative = less light; actives 0.23% (n = 120,000); AID 1745856; active = well fitted falling curve with a large enough effect; inconclusive = small, poorly fitted or top-dose-only effect; inactive = no such curve, though single readings can be large or run the other way; note: nearly all actives have a fitted effect of over 60% in size; overnight with compound
2A Renilla = FMDV 2A StopGo reporter, Renilla signal. HEK cells with a luciferase reporter of 2A StopGo recoding. Potency, µM (top dose mostly 57.5 µM), for the others: at the top dose signal change, negative = less light. actives 0.32% (n = 120,000). AID 1745857; active means well fitted falling curve with a large enough effect; inconclusive means small, poorly fitted or top-dose-only effect; inactive means no such curve, though single readings can be large or run the other way; note: nearly all actives have a fitted effect of over 55% in size; overnight with compound
Starred values were filed as active, the others as inactive; ? = inconclusive; [ ] = dose if it differs, or a comment. % is set by controls: 0 for no effect and ±100 for the full control effect; potency is the fitted concentration of half-maximal effect.

SMILES	2A firefly	2A Renilla
CC(=O)Nc1ccc(SCCCC(=O)c2cccs2)cc1	158%[activator]	54%[activator]
CCn1cc(C(=O)NCCCNS(C)(=O)=O)c2ccccc21	36%[activator]	-13%
Cc1ccc(-c2nn(CC(=O)Nc3ccc(F)cc3)c(=O)c3ccccc23)cc1	4%	-7%
Cc1cccc(NC(=O)CCl)c1C	?	?
CCC(=O)N1CCc2cc(Br)cc(S(=O)(=O)N3CCCC(C(=O)Nc4ccc(C(C)C)cc4)C3)c21 (stereo unspecified)	0%	86%[activator]
O=C(Cc1c[nH]c2ccccc12)Nc1cccc(CO)c1	23%	-10%
COc1ccc2[nH]cc(CCNC(=O)c3cccc(F)c3F)c2c1	17%	58%[activator]
CC(C)Cn1cnc2c1c(=O)n(CC(O)c1ccccc1)c(=O)n2CC(C)C (stereo unspecified)	-6%	0%
Cc1cc(=O)oc2cc(NC(=O)N(C)Cc3ccccc3Br)ccc12	57%[activator]	10%
Cc1cc(C)cc(N(C)S(=O)(=O)c2nnc(NC(=O)COc3ccc(C)c(C)c3)s2)c1	?	-19%
CCOc1ccc(C2CC(=O)NC(NC(=O)c3ccc(C)cc3)=N2)cc1 (stereo unspecified)	5%	-7%
N=C(N)COc1ccc(Cl)cc1	10%	6%
Cc1cc(NC(=O)c2ccc(Cl)cc2F)n(CCC#N)n1	-3%	-8%
COc1ccccc1OCCn1c(COc2cc(C)ccc2C)nc2ccccc21	0%	5%
COCCn1c(C)cc(C(=O)C(=O)Nc2nnc(COc3ccc(C)cc3)s2)c1C	25%	1%
Cc1cc(C)cc(NC(=O)N2CCN3CCCCC3C2)c1 (stereo unspecified)	11%	5%
Cc1nc2ccccc2nc1CN1C(=O)NC2(CCCCC2)C1=O	-6%	-18%
O=c1oc2ccc(Br)cc2cc1S(=O)(=O)N1CCCCCC1	-8%	-23%
COc1ccc(N2C(=O)C(C)CS2(=O)=O)cc1S(=O)(=O)NCc1ccco1 (stereo unspecified)	-8%	256%[activator]
Cc1c(-c2ccccc2)[n+](=O)c(-c2ccc(Cl)cc2)c(C)n1[O-]	66%[activator]	35%[activator]
CCC(C(=O)Nc1c(C)cc(C)cc1C)n1c(=O)c(-c2ccccc2NC(C)=O)nc2ccccc21 (stereo unspecified)	4%	-11%
COc1ccc(NC(=O)C2=C(C)Nc3nc(CCCO)nn3C2c2ccc(O)cc2)cc1 (stereo unspecified)	-13%	-11%
CNc1ccc2c(cc1=O)[C@@H](NC)CCc1cc(OC)c(OC)c(OC)c1-2	36%[activator]	41%
O=C(Nc1ccc(F)cc1)c1n[nH]c(=O)c2ccccc12	65%[activator]	-2%
CCc1ccc(NC(=O)Nc2ccccc2SCc2cc(=O)n3cc(C)ccc3n2)cc1	140%[activator]	2%

The listing continues:
SMILES	2A firefly	2A Renilla
CC(C)(C)OC(=O)COc1ccc2c(=O)c(Oc3ccccc3Br)coc2c1	-7%	-5%
NC1CC1c1ccc2ccccc2c1 (stereo unspecified)	21%	15%
O=C(Nc1cc(F)ccc1F)c1ccc2ccccc2n1	238%[activator]	3%
CCCN(CCC)CC(O)Cn1cc(/C=C/C(=O)c2ccc(Br)cc2)c2ccccc21 (stereo unspecified)	-7%	-10%
Cc1ccc(NC(=O)c2cn3c4c(ccc(Cl)c4c2=O)OC(C)C3)c(C)c1 (stereo unspecified)	-5%	-6%
Cc1cccc(Nc2c3c(nc4nncn24)CCC3)c1	14%	-13%
O=C(Nc1nnc(S(=O)(=O)Nc2ccccc2)s1)C1CCCCC1	-10%	22%
COc1ccc(NC(=O)CN(C)CC(=O)NC(=O)NCc2ccccc2)cc1	6%	-5%
COc1cccc(/C=C/C(=O)c2c(C)nn3c4ccccc4n(C)c23)c1OC(C)C	-14%	-3%
COc1ccc(C2C(C(=O)Nc3ccc(C)cc3)=C(C)Nc3nc4ccccc4n32)cc1OC (stereo unspecified)	0%	9%
O=C(c1ccccc1F)N(Cc1ccc2cc[nH]c2c1)C1CC1	-9%	30%
COc1ccc2cc(-c3ccccc3)c(=O)oc2c1	137%[activator]	48%[activator]
Cc1ccccc1NC(=O)C1=Cc2sc3c(c2CS1)CCCC3	85%[activator]	-9%
CC(C)[C@H](NC(=O)OCc1ccccc1)C(=O)OCC(=O)c1ccccc1	65%[activator]	75%[activator]
CC1(C)CC(CC(N)=O)CC(C)(C)N1	0%	10%
Cc1cc(C)c(CNCCS(=O)(=O)c2ccccc2)c(C)c1	15%	15%
Cc1cccc(C)c1NC(=O)Cn1cc(S(=O)(=O)Cc2ccc(F)cc2)c2ccccc21	-18%	-11%
COc1ccc(-c2noc(CN(C(=O)c3ccccc3Cl)C(C)C)n2)cc1	-3%	28%
CCCCCCCCC/C=N/NC(=S)NC1CCCCC1	48%[activator]	26%
O=C(COC(=O)c1ccc2ncsc2c1)c1ccc2c(c1)OCCCO2	59%[activator]	23%
O=C(NC1CC1)c1c(-n2cnnn2)sc2c1CCCC2	7%	-3%
COc1ccc(C2CC(=O)C3=C(C2)OC(N)=C(C#N)C3c2ccc(C)cc2)cc1 (stereo unspecified)	-6%	25%
O=C(NCCSCc1cccc(Cl)c1)C1CCN(S(=O)(=O)Cc2ccccc2)CC1	-11%	-3%
COc1ccc(-c2ocnc2C(=O)Nc2c(C)cc(C)cc2C)cc1OC	-1%	-4%
CCOc1ccc(N2CC(NC(=O)Cc3cccs3)CC2=O)cc1 (stereo unspecified)	-14%	-8%

New compounds follow:
SMILES	2A firefly	2A Renilla
Cc1ccc(C(=O)C(C)OC(=O)c2ccc(S(=O)(=O)N(C)C)cc2)cc1 (stereo unspecified)	5%	-6%
FC(F)(F)c1ccc(Cl)c(N/N=C/c2ccc(Cl)cc2Cl)c1	17%	4%
COc1ccc(-c2nc(SCC(=O)NC3CCCC3)c(-c3ccc(F)cc3)[nH]2)cc1	-11%	80%[activator]
CC(NC(=O)C1(c2ccccc2)CC1)C12CC3CC(CC(C3)C1)C2 (stereo unspecified)	3%	13%
N=C(N)COc1ccc(Cl)c(Cl)c1	13%	5%
Cc1ccc(S(=O)(=O)NCCc2nnc3ccc(SCc4ccc(F)cc4)nn23)cc1	-18%	126%[activator]
CCc1ccc(C(=O)c2cn(CC(=O)Nc3ccc(OC)cc3)c3cc4c(cc3c2=O)OCCO4)cc1	-11%	-7%
CC(C)Oc1ccc(C(=O)N(Cc2ccc(N(C)C)cc2)Cc2ccco2)cc1	-1%	6%
Cc1oc2cc(O)ccc2c(=O)c1Oc1ccccc1Br	-11%	0%
COc1ccc(Cl)cc1NC(=O)CSc1nnc(C)n2c1cc1sccc12	-12%	-6%
COc1ccc(Cl)cc1NC(=O)CSc1c2c(nc3ccccc13)CCC2	-6%	-5%
O=C(CSc1nccn1Cc1ccc(Cl)cc1)Nc1ccc2c(c1)OCO2	-8%	24%
Cc1[nH]c2c(C)cccc2c1C(O)CN1CCC(C)CC1 (stereo unspecified)	-6%	-10%
Cc1cccc2n[nH]nc12	39%[activator]	7%
Cc1cc(N2CCN(c3cccc(C(F)(F)F)c3)CC2)n2nc(-c3ccccc3)nc2n1	-25%	-20%
CCNC(=O)c1cccc2c(=O)c(C)c(-c3ccccc3)oc12	-8%	-10%
Cc1ccc(-c2nn3c(CCCC(=O)O)nc4ccccc4c3nc2=O)cc1	201%[activator]	?
Cc1noc(C)c1CN(C)Cc1ccc2c(c1)OCO2	11%	7%
O=c1c2sc3ccccc3c2n(Cc2ccc(F)cc2)c(=O)n1Cc1ccco1	-17%	-13%
CCc1ccc(NC(=O)Cn2c(=O)n(Cc3ccc4c(c3)OCO4)c(=O)c3oc4ccccc4c32)cc1	32%[activator]	48%[activator]
COCCCNC(=O)Cn1cnc2sc(C)c(S(=O)(=O)N3CCN(c4ccccc4OC)CC3)c2c1=O	-13%	-3%
Cc1ccc(C(=O)Nc2sccc2C#N)s1	163%[activator]	9%
Cn1c(=O)c2c(-c3ccccc3)n(-c3cccc(C#N)c3)cc2n(C)c1=O	9%	6%
COc1ccc(CNC(=O)Cc2c(C)c3ccc(OC)c(C)c3oc2=O)cc1OC	1%	-7%
Cc1nc2c(sc3cccc(F)c32)c(=O)n1CC(=O)Nc1ccccc1C(F)(F)F	-1%	-2%

Continued:
SMILES	2A firefly	2A Renilla
Cc1noc(/C=C/N(C)C)c1S(=O)(=O)N1CCCC(C(=O)Nc2ccc(F)cc2F)C1 (stereo unspecified)	-20%	-19%
Cc1ccc(-c2noc(CSc3nnc(C)n3-c3ccc(C)c(C)c3)n2)cc1	?	?
CCn1nc(C)c2c(-c3ccccc3)cc(=O)n(C(C)C(=O)Nc3cc(C)ccc3C)c21 (stereo unspecified)	-10%	-15%
CC(=O)Nc1ccc(NC(=O)c2cnc3ccccc3n2)cc1	0%	3%
Cc1cc(Cl)ccc1Nc1nc(N2CCOCC2)nc2nccnc12	-8%	-10%
Cn1c(=O)cc(OCC(=O)NCc2ccc(F)cc2Cl)c2ccccc21	-9%	-14%
CCCNc1c(NC(=O)Nc2ccc(OC)cc2)c(=O)oc2ccccc12	-5%	-4%
CCc1ccc(CNCc2c(C(=O)O)n(Cc3ccc(F)cc3Cl)c3cc(OC)ccc23)cc1	-4%	0%
Cc1cc(C)cc(NC(=O)C2CCN(c3cc(C)nc4c(-c5ccc(Cl)cc5)c(C)nn34)CC2)c1	?	-19%
Cn1c(SCC(=O)NCc2ccc3c(c2)OCCCO3)nnc1-c1cccs1	-1%	-6%
CN1C[C@@H](NS(=O)(=O)N(C)C)C[C@@H]2c3cccc4c3c(cn4C)C[C@H]21	13%[11.5 µM]	0%
CSc1nnc(-c2cc(Cl)ccc2NC(C)=O)c(=O)[nH]1	0%	0%
COc1cc2ccccc2cc1C(=O)OCc1ccc(C#N)cc1	119%[activator]	48%[activator]
Cc1cc(C)cc(NC(=O)CN2C(=O)c3ccccc3Sc3ccc(C(=O)N4CCOCC4)cc32)c1	-13%	9%
Cc1ccccc1NC(=O)COC(=O)/C=C/c1cccc2cccnc12	-8%	-1%
O=C(CSc1ncc(S(=O)(=O)c2ccc(Cl)cc2)c(=O)[nH]1)Nc1ccc2c(c1)OCCO2	5%	-8%
CC(C)(Oc1ccc(Cl)cc1)C(=O)OCc1nc2ccsc2c(=O)[nH]1	-13%	-7%

Ordered by SMILES length (lowest first): 3 of the compounds above
SMILES	2A firefly	2A Renilla
O=C(NC1CC1)c1c(-n2cnnn2)sc2c1CCCC2	7%	-3%
COc1ccc2[nH]cc(CCNC(=O)c3cccc(F)c3F)c2c1	17%	58%[activator]
CCc1ccc(NC(=O)Nc2ccccc2SCc2cc(=O)n3cc(C)ccc3n2)cc1	140%[activator]	2%

Whole records from above. Order of screens: 2A firefly | 2A Renilla
`Cc1cc(C)cc(NC(=O)C2CCN(c3cc(C)nc4c(-c5ccc(Cl)cc5)c(C)nn34)CC2)c1` is listed with ? | -19%
`Cc1cc(Cl)ccc1Nc1nc(N2CCOCC2)nc2nccnc12` is listed with -8% | -10%
`CSc1nnc(-c2cc(Cl)ccc2NC(C)=O)c(=O)[nH]1` is listed with 0% | 0%
`Cn1c(=O)cc(OCC(=O)NCc2ccc(F)cc2Cl)c2ccccc21` is listed with -9% | -14%
`Cn1c(SCC(=O)NCc2ccc3c(c2)OCCCO3)nnc1-c1cccs1` is listed with -1% | -6%

This is a subset. The share of hits here may be higher or lower than overall.
